Assay outcomes (PubChem BioAssay)
total CFTR: compounds raising F508del-CFTR protein level – cell-based, HeLa F508del-CFTR, immunofluorescence, viability, primary screen (AID 1224863) | HeLa F508del-CFTR, immunofluorescence total CFTR, 24 h; by the record results were divided by relative cell number; some inactives read as strong as hits | calls, or highest fold increase where a dose series was run | hit rate 0.1% among 10,000; in the data nearly all actives have a first-pass fold increase above 1.5; a few of its hits are not listed in these tables;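 also: total CFTR protein by anti-CFTR immunofluorescence in fixed cells; first pass at 25 µM or 10 µg/mL by library and series up to twice that; 1 = untreated cells; first-pass hits also needed half or more of the cells alive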
total CFTR fold 25 µM: recorded beside total CFTR, whose call it bears; fold increase; measured here: primary screen single dose 25 uM; library dosed in µM
total CFTR fold 10 ug/mL: also measured in total CFTR; calls as there; fold increase; measured here: primary screen 10 ug/mL
total CFTR viability 25 µM: also measured in total CFTR; calls as there; viability, %; measured here: primary viability 25 uM; library dosed in µM;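 0% = killed and 100% = untreated cells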
total CFTR viability 10 ug/mL: also measured in total CFTR; calls as there; viability, %; measured here: primary viability 10 ug/mL;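 0% = killed and 100% = untreated cells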
* marks the source's active call; other numbers are inactive results; i = inactive; x = no result given; & = joins results of further samples. Only part of the results is shown; rates above refer to the full screens.

SMILES	total CFTR	total CFTR fold 10 ug/mL	total CFTR viability 10 ug/mL	others
CN(C)C1(CNc2ccc(S(N)(=O)=O)cc2[N+](=O)[O-])CCCCCC1	i	1.05	104.0
O=C(NCCSc1ccccc1)C12CC3CC(CC(O)(C3)C1)C2	i	0.87	97.0
CC1CN(C(C)(C)CNC(=O)c2ccc(Br)s2)CC(C)O1 (centres undefined)	0.95	4.54	95.0
COCCNC(=O)/C=C/c1ccc(Cl)s1	i	1.01	96.0
CCCc1cc(C(=O)OCC(=O)c2c(N)n(C)c(=O)n(C)c2=O)n[nH]1	i	0.94	71.0
COc1cc(Cn2nc(C)c([N+](=O)[O-])c2C)ccc1OC(F)F	i	1.05	85.0
CCC1CN(S(=O)(=O)c2ccc(Br)cc2)CCO1 (centres undefined)	i	0.96	106.0
COc1ccc(CN(Cc2ccc([N+](=O)[O-])cc2)C2CC2)c(OC)c1	i	0.97	88.0
CC(C)NCC(O)c1ccc(NS(C)(=O)=O)cc1 (centres undefined)	i	x	x	total CFTR fold 25 µM=1.1&1&1.08;total CFTR viability 25 µM=84.0&88.0&90.0
O=S(=O)(O)CCSSCCS(=O)(=O)O	i	x	x	total CFTR fold 25 µM=0.95;total CFTR viability 25 µM=100.0
CC(C)N(CC1CCCN(c2ccc(C#N)cc2[N+](=O)[O-])C1)C(=O)OC(C)(C)C (centres undefined)	i	0.9	93.0
c1ccc(-n2nnnc2N2CCN(c3nc(-c4ccsc4)nc4ccccc34)CC2)cc1	i	0.89	92.0
c1csc(-c2csc(-c3ccsc3)n2)c1	i	0.99	94.0
CCOC(=O)C1=C(C)N(C)C(=O)NC1c1ccc(OC)c(OC(F)F)c1 (centres undefined)	i	0.93	93.0
C=CCNc1nnc(SCc2cc(OC)c(OC)cc2C)s1	i	0.97	105.0
CC(O)CNc1nc(-c2ccccn2)nc2scc(-c3ccccc3)c12 (centres undefined)	i	0.83	78.0
Cc1csc(CNC(=O)C2CCCO2)n1 (centres undefined)	i	0.95	98.0
CC(c1cc2ccccc2s1)N(O)C(N)=O (centres undefined)	i	x	x	total CFTR fold 25 µM=0.97&1.01&0.94;total CFTR viability 25 µM=98.0&82.0&77.0
Cc1ccc(C(=O)OC(C)C(=O)NC(=O)NC2CCCC2)n1C (centres undefined)	i	0.79	85.0
c1nc2n(n1)CCCN2	i	0.85	99.0
O=C(O)c1cc(-c2ccco2)nc2ccc([N+](=O)[O-])cc12	i	1.05	97.0
CC(C)(C)OC(=O)N1CCCC1C(=O)N1CCN(c2ncccn2)CC1 (centres undefined)	i	1.18	87.0
O=C1CCc2ccc(OCCCCN3CCN(c4cccc(Cl)c4Cl)CC3)cc2N1	i	x	x	total CFTR fold 25 µM=0.89&0.85;total CFTR viability 25 µM=82.0&80.0
NCC1CCC(C(=O)O)CC1 (centres undefined)	i	x	x	total CFTR fold 25 µM=0.88&1.06;total CFTR viability 25 µM=96.0&110.0
Nc1nc2ccc(OC(F)(F)F)cc2s1	i	x	x	total CFTR fold 25 µM=1.05&1.01;total CFTR viability 25 µM=109.0&92.0
Next part
SMILES	total CFTR	total CFTR fold 10 ug/mL	total CFTR viability 10 ug/mL	others
CNc1nc(SCc2cc(C)on2)nc2ccccc12	i	1.02	95.0
CN(c1nc(-c2cccs2)nc2ccccc12)C1CCCCC1	i	1	91.0
COC(=O)CSc1n[nH]c(=O)n1C1CC1	i	1.05	101.0
O=c1[nH]c(C(Cl)(Cl)Cl)nc2ccccc12	i	0.99	99.0
CN(C1CCCCC1)S(=O)(=O)N1CCN(C(=O)C2(c3ccccc3)CCOCC2)CC1	i	0.95	90.0
CC(C1CC1)N(C)C(=O)Nc1ccc2c(c1)CCC2 (centres undefined)	i	0.97	84.0
CN(C)CCCN1c2ccccc2Sc2ccc(C(F)(F)F)cc21	i	x	x	total CFTR fold 25 µM=1;total CFTR viability 25 µM=83.0
CN(C)CCc1c[nH]c2ccc(C[C@H]3COC(=O)N3)cc12	i	x	x	total CFTR fold 25 µM=1.05;total CFTR viability 25 µM=96.0
Cc1cc(C)c(C#N)c(SCc2nnsc2Cl)n1	i	1.04	93.0
NC(Cn1ccnc1)c1cccc(C(F)(F)F)c1 (centres undefined)	i	0.99	102.0
CN1CCN(S(=O)(=O)c2ccc(NCC3(N(C)C)CCCCCC3)c([N+](=O)[O-])c2)CC1	i	1.05	116.0
CCCNC(=O)c1cc(C)c(CC)s1	i	0.98	73.0
O=S(=O)(c1cccc(Br)c1)N1CCCN(c2ncc(C(F)(F)F)cc2Cl)CC1	i	0.92	88.0
O=c1c(Cl)cc(C(F)(F)F)cn1Cc1cccc([N+](=O)[O-])c1	i	1.01	93.0
CCN(C(=O)c1cnc2sccn2c1=O)C1C2CC3CC(C2)CC1C3 (centres undefined)	i	1.1	98.0
CCn1nnnc1SCc1ccc(F)c2cccnc12	i	1.11	94.0
COc1ccc(Cl)cc1NC(=O)C12CCC(=O)N1CCS2 (centres undefined)	i	1	98.0
Cc1noc(C)c1CC(=O)NCC1CCCCC1	i	1.07	96.0
CC1(C)CC2CC(C)(CN2S(=O)(=O)c2ccc(C(C)(C)C)cc2)C1 (centres undefined)	i	1.11	78.0
O=C(C1=C(O)C(=O)N(CCCN2CCOCC2)C1c1cccc(Br)c1)c1ccco1 (centres undefined)	i	1.02	99.0
O=C(NC1CCN(C(=O)c2ccoc2)CC1)C1CCC1	i	0.97	100.0
CC(C)(C)n1cc(C#N)cc1N	i	1.11	102.0
NS(=O)(=O)c1ccc(NCCc2ccc3c(c2)OCO3)c([N+](=O)[O-])c1	i	1.32	88.0
CS(=O)(=O)c1ccc(Cl)c(NC(=O)C23CC4CC(CC(Cl)(C4)C2)C3)c1	i	0.92	96.0
Cc1cn2c(C=C3C(=O)N(C)C(=O)N(C)C3=O)c(C)nc2s1	i	1.02	100.0
More results.
SMILES	total CFTR	total CFTR fold 10 ug/mL	total CFTR viability 10 ug/mL	others
Cc1ccc(C)c(-n2nnnc2SCc2cn3cccc(C)c3n2)c1	i	0.95	98.0
CC(c1nc(N)nc(Nc2ccccc2)n1)N1CCN(CCO)CC1 (centres undefined)	i	1.23	100.0
N#CCCSC1=NN(CCC#N)/C(=C2\C=CC=N2)O1	i	1.05	106.0
O=C(Nc1ccc(Cl)c(Cl)c1)N1CCN(CC2CCCO2)CC1 (centres undefined)	i	0.89	96.0
O=S(=O)(Nc1ccc(S(=O)(=O)C(F)F)cc1)c1ccc(F)cc1	i	0.89	92.0
O=C(OC1C[C@H]2CC[C@@H](C1)[N+]21CCCC1)C(O)(c1ccccc1)c1ccccc1 (some centres undefined)	i	x	x	total CFTR fold 25 µM=1.08;total CFTR viability 25 µM=103.0
Cc1ccc(C(C)NC(=O)CCc2ccsc2)o1 (centres undefined)	i	0.99	98.0
COc1ccc(-n2c(SCc3cn4ccccc4n3)nc3ccccc32)cc1	i	0.96	83.0
Cc1ccc(-c2csc3ncn(CC(C#N)CCC#N)c(=O)c23)s1 (centres undefined)	i	0.94	94.0
COc1ccc(C2CCCN2CN2C(=O)C3CC=CCC3C2=O)cc1 (centres undefined)	i	0.97	88.0
CC(C)(C)OC(=O)N1CCN(S(=O)(=O)C2=Cc3ccccc3CC2)CC1	i	1.11	103.0
CC1CCC(C)N1C1CCCN(c2nc(-c3cccnc3)nc3sc4c(c23)CCC4)C1 (centres undefined)	i	1.14	81.0
Cc1cc(C(=O)CSc2nnnn2C(C)C)c(C)n1-c1nccs1	i	0.94	82.0
CN1CCN(S(=O)(=O)c2ccc(N3CCC3)c([N+](=O)[O-])c2)CC1	i	1.09	79.0
O=S(=O)(Cc1csc(-c2ccccc2Cl)n1)Cc1ccccc1Cl	i	1.02	100.0
N#CC1=C(N)OC2=C(C(=O)CCC2)C1c1ccc2noc(-c3ccccc3)c2c1 (centres undefined)	i	0.94	77.0
C=C(c1ccc(C(=O)O)cc1)c1cc2c(cc1C)C(C)(C)CCC2(C)C	i	x	x	total CFTR fold 25 µM=0.85;total CFTR viability 25 µM=82.0
COc1ccc(CN(CCN(C)C)c2ncccn2)cc1	i	x	x	total CFTR fold 25 µM=1.2;total CFTR viability 25 µM=113.0
CCCN1C(=O)C(=O)N(CN2CCc3sccc3C2c2ccccc2)C1=O (centres undefined)	i	1.07	108.0
c1ccc(-c2cc(-c3nc4ccccc4[nH]3)c(-c3ccccc3)nn2)cc1	i	0.97	89.0
COc1ccc(/C=C(/Cl)c2ccncc2)cc1	i	0.8	79.0
CC(Sc1nnc(CC2CCS(=O)(=O)C2)n1C)c1nnc(-c2cccs2)o1 (centres undefined)	i	1.03	94.0
CCC1CCc2sc(-c3nnc(SCCC#N)n3C)cc2C1 (centres undefined)	i	0.82	86.0
CS(=O)(=O)c1ccc(Nc2ccc3c(c2)OC2(CCCCC2)O3)c([N+](=O)[O-])c1	i	0.8	89.0
Cc1ccc(-c2nnc(NCc3ccccc3)c3ccccc23)cc1C	i	0.93	99.0

Taken from above (4 entries):
SMILES	total CFTR	total CFTR fold 10 ug/mL	total CFTR viability 10 ug/mL	others
COc1ccc(/C=C(/Cl)c2ccncc2)cc1	i	0.8	79.0
CC(Sc1nnc(CC2CCS(=O)(=O)C2)n1C)c1nnc(-c2cccs2)o1 (centres undefined)	i	1.03	94.0
CCC1CCc2sc(-c3nnc(SCCC#N)n3C)cc2C1 (centres undefined)	i	0.82	86.0
CS(=O)(=O)c1ccc(Nc2ccc3c(c2)OC2(CCCCC2)O3)c([N+](=O)[O-])c1	i	0.8	89.0

Next structures follow.
SMILES	total CFTR	total CFTR fold 10 ug/mL	total CFTR viability 10 ug/mL	others
c1ccc2c(c1)ncn2CN1CCN(Cc2csc3ccccc23)CC1	i	1.18	107.0
Cc1noc(C)c1S(=O)(=O)NC1(c2ccc(Br)cc2)CCOCC1	i	0.96	95.0
CCn1cc[nH]c1=S	i	1.11	96.0
Cc1noc(NS(=O)(=O)c2ccc(N)cc2)c1C	i	x	x	total CFTR fold 25 µM=1.11&1.08;total CFTR viability 25 µM=100.0&86.0
Cc1cc2oc(=O)cc(CN3CCN(S(=O)(=O)c4c(C)c(C)cc(C)c4C)CC3)c2cc1C	i	0.97	80.0
CC1CCC(NC(=O)c2ccc([N+](=O)[O-])s2)CC1 (centres undefined)	i	0.76	77.0
CCCCOc1ccc(OCCCN2CCOCC2)cc1	i	x	x	total CFTR fold 25 µM=0.96;total CFTR viability 25 µM=93.0
O=C(c1cc(Cl)c2c(c1)OCO2)N1CCSc2ccccc21	i	0.91	63.0
CC(C)C(C)NC(=O)Nc1ccc(I)cc1 (centres undefined)	i	0.92	79.0
Cc1cc(C(=O)CN2CC(C)OC(C)C2)c(C)[nH]1 (centres undefined)	i	1.05	82.0
O=c1oc2ccccc2n1CN1CCCN(S(=O)(=O)c2ccc(F)cc2)CC1	i	0.97	110.0
O=S(=O)(N1CCCCCC1)N1CCN(Cc2ccc(Cl)cc2Cl)CC1	i	1.08	98.0
O=c1ccc2cc(S(=O)(=O)Nc3ccc(N4CCCS4(=O)=O)cc3)ccc2o1	i	1.02	82.0
O=C(NCCCOCC(F)(F)F)Nc1ccc([N+](=O)[O-])cc1	i	0.96	98.0
O=C(Cn1cc(Br)c(=O)[nH]c1=O)NC12CC3CC(CC(C3)C1)C2	i	0.96	101.0
CN1c2ccccc2C(=O)NC1c1cc(Cl)c2c(c1)OCO2 (centres undefined)	i	0.98	95.0
CC1=C(/C=C/C(C)=C/C=C/C(C)=C/C=C/C=C(C)/C=C/C=C(C)/C=C/C2=C(C)C(=O)CCC2(C)C)C(C)(C)CCC1=O	i	x	x	total CFTR fold 25 µM=1;total CFTR viability 25 µM=95.0
CN(C)C(=O)C1CCCN1c1nc2sccn2c1[N+](=O)[O-] (centres undefined)	i	1.1	104.0
CCn1c(SCc2nnc(-c3ccc(Br)s3)o2)nnc1C1CC1	i	1.01	91.0
O=C(OCc1ccc(-c2ccccc2)cc1)C1(c2ccc(Cl)cc2)CCC1	i	1.04	102.0
CCCn1c(N)c(C(=O)CN2CC(C)OC(C)C2)c(=O)n(C)c1=O (centres undefined)	i	1.07	97.0
CC1CCc2sc(C(=O)OCC(=O)NC3CCCCC3C)cc2C1 (centres undefined)	i	1	87.0
COc1ccc(C(=O)CCC(=O)O)c2ccccc12	i	x	x	total CFTR fold 25 µM=1.06;total CFTR viability 25 µM=100.0
CC(C)(C)NC(=O)CC1(C(=O)NC2CCN(C(=O)c3ccoc3)CC2)CCCC1	i	0.95	94.0

Structures from the list above that contain an aryl methoxy group:
SMILES	total CFTR	total CFTR fold 10 ug/mL	total CFTR viability 10 ug/mL	others
COc1cc(Cn2nc(C)c([N+](=O)[O-])c2C)ccc1OC(F)F	i	1.05	85.0
COc1ccc(CN(Cc2ccc([N+](=O)[O-])cc2)C2CC2)c(OC)c1	i	0.97	88.0
CCOC(=O)C1=C(C)N(C)C(=O)NC1c1ccc(OC)c(OC(F)F)c1 (centres undefined)	i	0.93	93.0
C=CCNc1nnc(SCc2cc(OC)c(OC)cc2C)s1	i	0.97	105.0
COc1ccc(Cl)cc1NC(=O)C12CCC(=O)N1CCS2 (centres undefined)	i	1	98.0
COc1ccc(-n2c(SCc3cn4ccccc4n3)nc3ccccc32)cc1	i	0.96	83.0
COc1ccc(C2CCCN2CN2C(=O)C3CC=CCC3C2=O)cc1 (centres undefined)	i	0.97	88.0
COc1ccc(CN(CCN(C)C)c2ncccn2)cc1	i	x	x	total CFTR fold 25 µM=1.2;total CFTR viability 25 µM=113.0
COc1ccc(/C=C(/Cl)c2ccncc2)cc1	i	0.8	79.0
COc1ccc(C(=O)CCC(=O)O)c2ccccc12	i	x	x	total CFTR fold 25 µM=1.06;total CFTR viability 25 µM=100.0
